Screening data deposited in PubChem by National Center for Advancing Translational Sciences (NCATS).
VDR inh: vitamin D3 receptor (human) inhibition; VDR-SRC2-3 peptide fluorescence polarization, 2 h; Potency, µM, for inactives: max response, negative = inhibition, usual class: inhibitors; 0.93% of 400,000 active; AID 504847; active means well fitted inhibition curve with a large enough effect; inconclusive means small, poorly fitted or top-dose-only effect, or another doubt; inactive means no such curve, though single readings can be large or run the other way; further: series mostly up to about 120 µM
Target sequence (P11473 whole entry, looked up): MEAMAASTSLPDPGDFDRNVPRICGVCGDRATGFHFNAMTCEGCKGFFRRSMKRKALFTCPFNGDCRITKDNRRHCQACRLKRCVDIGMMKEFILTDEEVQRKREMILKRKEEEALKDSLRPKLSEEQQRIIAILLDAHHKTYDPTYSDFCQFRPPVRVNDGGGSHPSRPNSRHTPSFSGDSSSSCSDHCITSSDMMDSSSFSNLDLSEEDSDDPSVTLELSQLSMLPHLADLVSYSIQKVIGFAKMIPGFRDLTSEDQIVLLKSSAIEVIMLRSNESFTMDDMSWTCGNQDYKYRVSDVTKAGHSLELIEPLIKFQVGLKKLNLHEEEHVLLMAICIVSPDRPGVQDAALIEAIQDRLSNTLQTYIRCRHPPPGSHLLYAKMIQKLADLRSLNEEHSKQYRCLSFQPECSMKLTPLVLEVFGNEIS
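Reagent solutions, kept cold and dark, are dispensed first; compounds are then pinned in at 23 nl, plates briefly spun, and incubated 2 h at ambient temperature. Inhibition of VDR–SRC2-3 peptide binding is read by fluorescence polarization.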
An asterisk follows results filed as active; u = inconclusive; & = joins results of further samples; [ ] = remark or other dose. On the % scale 0 is the no-effect control and ±100 the full control effect; potency means the concentration at half of the fitted maximal effect.

Preview (5 entries):
Cc1ccc(/C=N/NC(=O)c2csc(C)c2)o1
  VDR inh: -7%

O=S(=O)(Cc1nnnn1-c1ccccc1)c1ccc(F)cc1
  VDR inh: 35%[activator]

O=C(CSc1nc2ccccc2n1CCc1ccccc1)NC1CC1
  VDR inh: 0%

Cc1nonc1NC(=O)CSc1nnc(-c2ccoc2C)n1-c1cccc(Cl)c1
  VDR inh: 3%

CCc1cc2c(=O)c(-c3cnn(-c4ccccc4)c3)c(C)oc2c(CN2CCCCC2)c1O
  VDR inh: 0%

The list itself, previewed entries included:
Cc1ccc(/C=N/NC(=O)c2csc(C)c2)o1
  VDR inh: -7%

O=S(=O)(Cc1nnnn1-c1ccccc1)c1ccc(F)cc1
  VDR inh: 35%[activator]

O=C(CSc1nc2ccccc2n1CCc1ccccc1)NC1CC1
  VDR inh: 0%

Cc1nonc1NC(=O)CSc1nnc(-c2ccoc2C)n1-c1cccc(Cl)c1
  VDR inh: 3%

CCc1cc2c(=O)c(-c3cnn(-c4ccccc4)c3)c(C)oc2c(CN2CCCCC2)c1O
  VDR inh: 0%

CC(C(=O)NC1CCCCCC1)n1cc([N+](=O)[O-])cn1 (centres undefined)
  VDR inh: -13%

O=C(O)c1ccc(NC(=O)c2ccccc2Br)c(NC(=O)c2ccccc2Br)c1
  VDR inh: 4%

CCN(CC)C(=O)c1c(Cl)nc(C)c([N+](=O)[O-])c1C
  VDR inh: -10%

COC(=O)c1c(C(=O)OC)c2ccccn2c1C(=O)c1ccc([N+](=O)[O-])cc1
  VDR inh: -25%

CCOC(=O)N1CCN(C(=O)CSc2nnc(Cn3c(=O)sc4ccccc43)n2C)CC1
  VDR inh: -22%

COc1ccc(-c2nnn(Cc3nc(N)nc(N4CCCCC4)n3)n2)cc1
  VDR inh: 13%

Cc1ccc(NC(=O)CN(c2ccc3c(c2)OCO3)S(=O)(=O)c2c(C)n[nH]c2C)cc1
  VDR inh: -3%

COc1ccccc1N1CCN(C(=O)C(=O)c2c(C)n(C)c3ccccc23)CC1
  VDR inh: -9%

FC(F)Oc1ccc(NC(=S)NC2CCSc3ccccc32)cc1 (centres undefined)
  VDR inh: -5%

CCc1nc(SCC(=O)N2c3ccccc3Sc3ccccc32)c2ccccc2n1
  VDR inh: -3%

Cn1c(=O)c2[nH]c(Nc3ccccc3)nc2n(C)c1=O
  VDR inh: 9%

COc1ccc(-c2ccc([C@H]3[C@H]4C=CC[C@@H](C)[C@@H]4C(=O)N3Cc3ccccc3)c(F)c2)cc1OC
  VDR inh: -16%

C#CCN(C(=O)c1cc(COc2ccc(C)c(C)c2)on1)C1CCCCC1
  VDR inh: 0%

O=C(CN1CCOCC1)Nc1cccc(S(=O)(=O)N2CCCCCC2)c1
  VDR inh: -24%

Cc1ccc(S(=O)(=O)NC(CCc2ccccc2)CC(=O)C(C)(C)C)cc1 (centres undefined)
  VDR inh: 6%

O=C(NN1C(=O)c2ccccc2NC1c1ccc([N+](=O)[O-])o1)c1ccccc1 (centres undefined)
  VDR inh: -11%

Cc1ccccc1C(=O)OC1OC(=O)C(Cl)=C1Nc1ccc(C(=O)O)cc1 (centres undefined)
  VDR inh: u

Cc1cc(C)n2nc(SCC(=O)NC(=O)c3ccccc3)nc2n1
  VDR inh: -1%

O=C(c1ccco1)N(CCCN1CCOCC1)c1nc(-c2ccc(Cl)cc2)cs1
  VDR inh: 13%

COC(=O)c1ccnc(SCC(=O)c2ccccc2)c1
  VDR inh: -16%

C[C@H](CO)N1C[C@H](C)[C@@H](CN(C)S(=O)(=O)c2ccccc2)Oc2ccc(NC(=O)CCN3CCOCC3)cc2C1=O
  VDR inh: -5%

CC(C)(C)OC(=O)N1CC23CC(c4ccc(F)cc4)C(CC2S1(=O)=O)O3 (centres undefined)
  VDR inh: -2%

CCN(CC)S(=O)(=O)c1cccc(NC(=O)COC(=O)C2=COCCO2)c1
  VDR inh: 12%

O=C1/C(=C/c2cccs2)SC(=S)N1C1CCS(=O)(=O)C1 (centres undefined)
  VDR inh: 29%

NC(=O)CN1N=C(c2cc(Cl)sc2Cl)CSC1=O
  VDR inh: 2%

O=C(Cc1ccccc1)Nc1nc2ccccc2s1
  VDR inh: -3%

CCn1c2ccccc2c2nnc(SCC(=O)Nc3c(C)n(C)n(-c4ccccc4)c3=O)nc21
  VDR inh: 14%

Cc1ccc(-n2c(=O)c3ccc(C(=O)NCc4ccccc4Cl)cc3n(CC(=O)Nc3cccc(F)c3)c2=O)cc1
  VDR inh: 3%

O=C(N=C1SC2CS(=O)(=O)CC2N1c1cc(Cl)ccc1Cl)C1CCCO1 (centres undefined)
  VDR inh: -5%

COc1ccc(C(=O)N2CCCC(CCC(=O)NCc3ccc(F)c(F)c3)C2)cc1F (centres undefined)
  VDR inh: 16%

O=C(O)Cc1ccc2c(c1)N(S(=O)(=O)c1cccs1)CC(C(=O)O)O2 (centres undefined)
  VDR inh: 19%

CCN1CCc2nc3sc(C(=O)c4ccc(F)cc4)c(N)c3cc2C1
  VDR inh: 1%

Cc1cc(NC(=O)CSCC(=O)N(C)Cc2c(F)cccc2Cl)no1
  VDR inh: -11%

CSc1nn2c(C(F)(F)F)cc(C(F)(F)F)nc2c1C(N)=O
  VDR inh: -10%

O=C(Nc1ccc(S(=O)(=O)N2CCOCC2)cc1)c1ccc(F)cc1
  VDR inh: 3%

COc1ccc(OC)c(N/C(C)=C/C(=O)c2ccncc2)c1
  VDR inh: -26%

Cc1nn(Cc2c(F)c(F)c(F)c(F)c2F)c(C)c1NC(=O)c1ccnn1C
  VDR inh: 16%

CCOC(=O)C1C(C(=O)Nc2cccc(C(F)(F)F)c2)C1C(=O)NC(C)C (centres undefined)
  VDR inh: 5%

Cc1noc(C)c1S(=O)(=O)Nc1cc(C(F)(F)F)ccc1N1CCOCC1
  VDR inh: -5%

Cc1cccc(-n2nc3c(c2NC(=O)c2ccc(Br)o2)CSC3)c1C
  VDR inh: 3%

Cc1cccc(C)c1N=C1C(=O)Nc2ccccc21
  VDR inh: 6%

O=C(Nc1ccc(Cl)cc1)C1CCN(c2nc3ccccc3nc2C(F)(F)F)CC1
  VDR inh: -5%

COc1cc(N)ccc1Cc1ccc(N)cc1OC
  VDR inh: 2%

CCC(CC)c1nnc(NC(=O)C2COc3ccccc3O2)s1 (centres undefined)
  VDR inh: 11%

COc1ccc(C2CC(c3ccccc3OC(C)=O)=NN2C(=O)/C=C/c2ccccc2)cc1 (centres undefined)
  VDR inh: 5%

NC(=O)N/N=C/c1ccc(-n2nncc2-c2ccc(Cl)cc2)cc1
  VDR inh: -17%

COc1ccc(CCNC(=O)c2c[nH]n3c(=O)c(Cc4ccccc4Cl)c(C)nc23)cc1OC
  VDR inh: 7%

Cc1ccc(NC(=O)c2ccccc2F)nc1
  VDR inh: -20%

CC(OC(=O)/C=C/c1ccccc1)C(=O)Nc1cccc(C#N)c1 (centres undefined)
  VDR inh: 7%

Oc1ccc(Nc2nc3ccccc3n3cnnc23)cc1
  VDR inh: -4%

O=C(CN1CCN(c2cccc(C(F)(F)F)c2)CC1)Nc1cccc(C(F)(F)F)c1
  VDR inh: -8%

COc1ccc(-n2c(=O)c3ccccc3n(Cc3ccccc3F)c2=O)cc1OC
  VDR inh: 16%

CCCCNCC(=O)Nc1sc(C)c(C)c1C(=O)OCC
  VDR inh: -5%

Cc1cc(C)c(S(=O)(=O)C(C)C)c(=O)[nH]1
  VDR inh: 4%

COc1cc(OC)nc(Oc2ccccc2C(=O)Oc2ccccc2Cl)n1
  VDR inh: 28%

Cn1nnc2cc(C(=O)NCc3ccco3)ccc21
  VDR inh: 4%

CN1CCc2c(sc(NC(=O)c3ccco3)c2C(N)=O)C1
  VDR inh: -8%

COc1ccc(C)cc1NC(=O)Cc1c(C(=O)O)c(C)cn1C
  VDR inh: 4%

CCN(CC(=O)NCc1ccc(Cl)cc1)C(=O)CCOc1ccccc1C
  VDR inh: -5%

COc1ccc(NC(=O)CSc2c3c(nc4ccccc24)CCCC3)c(OC)c1
  VDR inh: u

COc1cc([N+](=O)[O-])ccc1NC(=O)Nc1cnccn1
  VDR inh: -1%

Cc1cc(OC(C)C(=O)NCCCn2ccnc2)c2c(C)c(C)c(=O)oc2c1 (centres undefined)
  VDR inh: 5%

Cc1cccc(NC(=S)Nc2ccc(Oc3ccccc3)cc2)n1
  VDR inh: 9%

CCOC(=O)c1cc(-c2ccccc2)sc1NC(=O)CN1C(=O)c2ccccc2C1=O
  VDR inh: 20%

Cc1c([N+](=O)[O-])c(C(=O)NC2CCCCC2)nn1C
  VDR inh: -14%

O=C(NCc1ccccc1Cl)C1CCCN1C(=O)Nc1ccccc1 (centres undefined)
  VDR inh: -16%

OCCN(Cc1ccccc1)C(=S)Nc1ccc(F)cc1
  VDR inh: -11%

O=C(c1ccc(Br)cc1)N1CCC(C(=O)N2CCN(c3ccccc3)CC2)CC1
  VDR inh: 8%

Cc1noc(NS(=O)(=O)c2ccc(N/C=C\C(=O)c3ccccc3)cc2)c1C
  VDR inh: 2%

Cc1ccc(N2C(=O)NC(NS(=O)(=O)c3ccccc3)(C(F)(F)F)C2=O)cc1C (centres undefined)
  VDR inh: -7%&-22%

O=C(COC(=O)c1cccs1)NCCCc1ccccc1
  VDR inh: -6%

CNCCc1cnc(CCC(c2ccccc2)c2ccccc2)[nH]1
  VDR inh: -13%

CN(C(=S)Nc1ccccc1F)C1(c2ccccc2Cl)CCCCC1=O (centres undefined)
  VDR inh: 12%

COc1ccc(-c2ncc3ccccn23)cc1
  VDR inh: 8%

Cc1cc(C)cc(OCc2nnc(SCC(=O)NC3CC3)n2C)c1
  VDR inh: -8%

CCC(=O)N1CCc2cc(Br)cc(S(=O)(=O)N3CCC(C(=O)Nc4ccccc4F)CC3)c21
  VDR inh: -11%

COc1ccc(-c2nc(C#N)c(N3CCC(C(N)=O)CC3)o2)cc1
  VDR inh: -10%&-3%

O=C(CCCNS(=O)(=O)c1cccc2nsnc12)N1CCCCC1
  VDR inh: 5%

CC(C)Oc1ccc(CNC(=O)c2cnc3sc(N4CCCCC4)nn3c2=O)cc1
  VDR inh: 0%

Cc1ccc(S(=O)(=O)N2CCC(C(=O)N3CC(C)OC(C)C3)CC2)cc1 (centres undefined)
  VDR inh: -11%

CC(C)C[C@H]1CNC(=O)C(=O)N1C[C@H](C)NC(=O)Cc1ccccc1
  VDR inh: -19%

CCN(C(=O)CSc1nnc(Cn2nnc3ccccc32)o1)c1nc(-c2ccccc2)cs1
  VDR inh: -15%

O=C(COC(=O)c1ccco1)Nc1cccc(S(=O)(=O)N2CCCCC2)c1
  VDR inh: -17%

Cc1cc(Cl)ccc1NC(=O)COC(=O)c1cc([N+](=O)[O-])ccc1N1CCOCC1
  VDR inh: -6%

Cc1n[nH]c(=O)n1-c1ccc(C(C)(C)C)cc1
  VDR inh: 12%

FC(F)(F)c1cnc2c(c1)[nH]c(=S)n2-c1ccc(Cl)cc1
  VDR inh: 20%

O=C(O)c1ccc(CSc2nnc(-c3ccccc3Cl)n2-c2ccccc2)cc1
  VDR inh: 1%

Cc1ccc(C(=O)NNC2=NCCC2)cc1
  VDR inh: -12%

COc1ccc(NC(=O)CN(C)C(=O)c2ccccc2SCC(=O)N2CCCC2)cc1
  VDR inh: -1%

COc1ccc(C2=Nn3c(nnc3-c3ccccc3)SC2)cc1OC
  VDR inh: 17%

CC(C)CC[n+]1ccn(-c2nc3ccccc3nc2[N-]S(=O)(=O)c2ccccc2)c1
  VDR inh: 11%

COC(=O)c1ccccc1NC(=O)c1ccc(NS(C)(=O)=O)cc1
  VDR inh: -5%

Cc1cc(Cl)ccc1NC(=S)Nc1cccnc1
  VDR inh: -17%

CCNc1nc2c(c(=O)n(C)c(=O)n2C)n1CCCc1ccccc1
  VDR inh: u

Cc1ccc2[nH]c(=O)c(NC(N)=S)nc2c1
  VDR inh: 6%

O=C(Cc1cccs1)Nc1nnc(Cc2ccccc2)s1
  VDR inh: 20%

O=C(O)CN1C(=O)CC(Cc2ccccc2)C1=O (centres undefined)
  VDR inh: 2%

COc1ccc(C)cc1NC(=O)CSc1nc(=O)n(Cc2ccncc2)c2c1CCC2
  VDR inh: -9%

COc1ccc2cc(C(=O)C3CCCN(C(=O)c4cccnc4)C3)ccc2c1 (centres undefined)
  VDR inh: 17%

Cc1nc(-c2ccc(Cl)cc2)sc1C1(C)CC(c2ccc(F)cc2)=NO1 (centres undefined)
  VDR inh: 12%

CN(Cc1cccc(F)c1)C(=O)c1ccc(NS(=O)(=O)c2ccc3[nH]c(=O)[nH]c3c2)cc1
  VDR inh: 15%

CCC(c1ccc(O)cc1)C(CC)c1ccc(O)cc1 (centres undefined)
  VDR inh: 2%&-16%

CCOC(=O)N1CCC(N2C(=O)c3ccccc3C2Nc2cc(OC)c(OC)c(OC)c2)CC1 (centres undefined)
  VDR inh: -9%

Cc1c(C=O)c2ccccn2c1C(=O)c1cccs1
  VDR inh: 4%

Cc1cccc(C(=O)N2CCN(c3ccc([N+](=O)[O-])c(NCc4ccco4)c3)CC2)c1
  VDR inh: -10%

COc1cc(OC)c(C(=O)OCC(=O)Nc2cccc(S(=O)(=O)NC3=NCCCCC3)c2)cc1OC
  VDR inh: -9%

CCOC(=O)c1c(Oc2ccc(C(C)=O)cc2)nnc(-c2ccccc2)c1-c1ccccc1
  VDR inh: 22%

O=[N+]([O-])c1ccccc1/C=N/n1c(-c2ccccc2)n[nH]c1=S
  VDR inh: -5%

O=C(CSc1nnc(-c2ccccc2)o1)OCc1ccccc1
  VDR inh: -8%

CN(C)C(CNC(=O)c1cc(S(=O)(=O)N(C)c2ccc(F)cc2)ccc1Cl)c1cccs1 (centres undefined)
  VDR inh: -15%

CCOC(=O)CSCC(=O)N1CCC(Cc2ccccc2)CC1
  VDR inh: 4%

Cc1c(F)cccc1NS(=O)(=O)c1ccc2c(c1)c(C)cc(=O)n2C
  VDR inh: 7%

C=C(C)C1CCC(C)C(OC(C)=O)C1 (centres undefined)
  VDR inh: -8%

CCCCN1CC2=C(C1=O)C(c1ccc(O)cc1)NC(=O)N2C (centres undefined)
  VDR inh: 10%

COc1ccc(NC(=O)/C(C#N)=C/c2ccc3c(c2)n(C)c(=O)n3C)cc1
  VDR inh: -2%

Some of the compounds tested; count on the stated rates, not on these rows.
